quorum sensing: Vibrio cholerae quorum sensing activators, luminescence (AID 686977); V. cholerae quorum sensing reporter, luminescence, 6 h; higher luminescence means a stronger effect; most inactives read 0; 9,400 tested, under 10 active; luminescence at 50 µM unless noted; hits with a dose series show EC50 in µM;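 active = light above mean plus 3 SD and confirmed in a dose series; inconclusive = above that limit without a clear retest; inactive = below it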;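 note: raw light counts without normalisation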
An asterisk follows results filed as active; ? = inconclusive; [ ] = remark or other dose.

SMILES,quorum sensing
CC1=CC(C)(C)Nc2cc(C)c(C)cc21,200
Cc1nc(SCC(=O)Nc2ccc(F)cc2)c2oc3ccccc3c2n1,0
CCN1CCN(Cc2cc(Br)ccc2O)CC1,0
Cc1cccc(-c2noc(CN(C(=O)c3c(-c4ccccc4Cl)noc3C)C(C)C)n2)c1,0
Cc1cc(NCCOCCO)n2ncc(-c3ccc(Cl)cc3)c2n1,0
O=C(NC1CCCC1)C1CCCN1S(=O)(=O)c1cccc2cccnc12 (configuration not stated),0
CCOC(=O)C1=C(C)NC(=O)NC1c1ccc(OCCO)c(OC)c1 (configuration not stated),0
Cc1cccc(C)c1OCc1nnc(SCC(=O)Nc2ccccc2F)o1,40
CC(CCc1ccccc1)NCC(O)c1ccc(O)c(C(N)=O)c1 (configuration not stated),0[10 µg/mL]
CC1CN(S(=O)(=O)c2ccc(C(=O)Nc3nnc(-c4ccc5c(c4)CCCC5)o3)cc2)CC(C)O1 (configuration not stated),0
O=C(CCCN1C(=O)c2ccccc2C1=O)Nc1c(C(=O)C2CC2)oc2ccccc12,?
Cc1nc(C)c(C(=O)C2=C(O)C(=O)N(CCN3CCOCC3)C2c2ccco2)s1 (configuration not stated),0
Cc1cccc(NC(=O)COc2nsnc2N2CCOCC2)c1,0
C/C(=N\OC(=O)c1cccc(Cl)c1)c1sc(C)nc1C,?
COc1ccc(C(=O)NC(C)(C)C)cc1S(=O)(=O)N1CCCC1,0
COc1ccc(C(c2sc3nc(C)nn3c2O)N2CCN(CCO)CC2)cc1OC (configuration not stated),0
O=C(Nc1ccccc1)OCCNC(=O)c1cccc(Cl)c1,40
COc1cccc(C2CC(c3cccc(C)c3)n3ncnc3N2)c1 (configuration not stated),40
O=S(=O)(/N=C(/Nc1ccccc1F)c1ccccc1)c1ccccc1,40
CC(C)Cn1c(N2CCN(C(=O)c3cccs3)CC2)nc2ccccc21,0
Cc1ccc(-c2cc(NC(=O)CSc3n[nH]c(N)n3)n(-c3ccccc3)n2)cc1,0
Brc1ccc(C2Nc3cccc4cccc(c34)N2)o1,40
CC(C)CCNC(=O)COc1ccc2c(c1)C(=O)CC(C)(C)O2,0
Cc1cccc(-n2c(Cc3cc(=O)[nH]c(=O)[nH]3)nnc2SCC(=O)N2CCCCC2)c1,0
CCN1CCN(C(=O)c2cc3c(s2)-c2ccccc2S(=O)(=O)C3)CC1,0

By substructure, those above with a thiophene ring, fused or not
SMILES,quorum sensing
CC(C)Cn1c(N2CCN(C(=O)c3cccs3)CC2)nc2ccccc21,0
CCN1CCN(C(=O)c2cc3c(s2)-c2ccccc2S(=O)(=O)C3)CC1,0

Back to the main list with the four entries that preceded the break.
SMILES,quorum sensing
Brc1ccc(C2Nc3cccc4cccc(c34)N2)o1,40
CC(C)CCNC(=O)COc1ccc2c(c1)C(=O)CC(C)(C)O2,0
Cc1cccc(-n2c(Cc3cc(=O)[nH]c(=O)[nH]3)nnc2SCC(=O)N2CCCCC2)c1,0
CCN1CCN(C(=O)c2cc3c(s2)-c2ccccc2S(=O)(=O)C3)CC1,0
CCN1C(=S)SC(=O)C1=C1C=C(C)OC(C)=C1,40
COc1cccc(-c2nn(C)c3sc(C(=O)NCc4ccc5c(c4)OCO5)cc23)c1,0
COc1ccc(CC(=O)Nc2nc3ccc(F)cc3s2)cc1S(=O)(=O)N1CCOCC1,40
Nc1ccc(OCc2ccccc2)cc1,?
Cc1nc2ccc(S(=O)(=O)N(C)CC(=O)NCc3ccc4c(c3)OCO4)cc2s1,0
CC(=O)Nc1ccc(NC(=O)CN(c2ccccc2Cl)S(C)(=O)=O)cc1,?
N#CC(c1ccc(F)cc1)c1ccc(C(=O)c2ccccc2)cc1 (configuration not stated),40
COc1ccc2c(c1OC)C(=O)N1c3ccccc3C(=O)N(c3ccccc3F)C21 (configuration not stated),40
COc1ccc2c(c1OC)C(=O)N(c1cccc(C(F)(F)F)c1)C2,40
Cc1ccsc1C(C(=O)NC1CCCCC1)N(C(=O)c1csnn1)C1CC1 (configuration not stated),0
CCN(CC)S(=O)(=O)c1ccc(-c2nnc3sc4cccc(C)c4n23)cc1,0
CC(=O)c1cc(C#N)c(SCc2ccc(F)cc2)nc1C,40
CCOc1cc(Cl)c(S(=O)(=O)NCc2ccccn2)cc1Cl,0
Cc1ccc(-c2nnc3n2N=C(c2ccccc2)CS3)cc1,0
c1nc(N2CCN(Cc3ccc4c(c3)OCO4)CC2)c2[nH]cnc2n1,80
Cc1ccc(S(=O)(=O)Nc2ccc(NC(=O)CN3CCCCC3)c(Cl)c2)cc1,0
COC(=O)c1cc(NC(=O)CC2C(=O)NCCN2C(=O)c2ccc(F)cc2)cc(C(=O)OC)c1 (configuration not stated),0
CC1CC(OC(=O)c2ccccc2O)CC(C)(C)C1 (configuration not stated),?
CC1=CC(=O)C2=C(C)C[C@H](O)[C@@H]3[C@H](OC(=O)[C@H]3C)[C@@H]12,0[10 µg/mL]
CCn1c(SCC(=O)NCc2ccccc2)nc2c(c1=O)SC(C)C2 (configuration not stated),0
CN(C)CCNC(=O)c1cc2c(=O)n(C)c3ccccc3c2n1C,0
Cc1cc(CC(=O)O)n(C)c1C(=O)c1ccc(Cl)cc1,120[10 µg/mL]
Nc1ccccc1NC(=O)c1ccccc1,0
O=C(NCCN1CCN(C(=O)Nc2ccccc2)CC1)Nc1ccccc1,0
CC(C)NC(=O)C1CCCN(c2nnc(-n3cccc3)s2)C1 (configuration not stated),40
CN1C(=O)CC(c2ccco2)Sc2ccccc21 (configuration not stated),40
CC(CN1CCOCC1)OC(=O)c1cccs1 (configuration not stated),0
Cn1cnnc1SCC(=O)Nc1ccccc1,0
O=C(NCc1cccs1)C1CCCN(S(=O)(=O)c2ccc3c(c2)OCO3)C1 (configuration not stated),0
O=C(Nc1ccc2ccccc2c1)c1cccnc1,40
Cc1ccc(CNC(=O)CCNC(=O)Cn2ccc3ccccc3c2=O)o1,40
O=C(NCc1ccccc1)c1cc2ccccc2o1,0
OCC#CCSc1nnc(-c2ccc(Br)cc2)o1,0
O=C(NC1(O)C(=O)c2ccccc2C1=O)c1ccccc1,0
Cc1ccc(C(c2sc3ncnn3c2O)N2CCCCC2)cc1 (configuration not stated),40
CCCSc1nnc(-c2c[nH]c3ccccc23)n1C,0
Cc1nn(C)cc1CN(C)C(=O)c1sc2cccc(Cl)c2c1Cl,0
Cc1cccc(NC(=O)C2CCN(S(=O)(=O)c3cccc4cccnc34)CC2)n1,0
COc1cc(/C=C(\C#N)c2nc3c(s2)CCCC3)ccc1O,40
CCc1ccc(OCCNC(=O)c2ccc(S(=O)(=O)N(C)C)cc2)cc1,40
Cc1cc(C(=O)NCCCN2CC(C)CC(C)C2)n(-c2ccccc2)n1 (configuration not stated),160
COc1cccc(C2CC(c3cccc(OC)c3)n3nc(N)nc3N2)c1 (configuration not stated),40
CSc1nnc(CNC(=O)c2ccccc2)n1-c1ccc(F)cc1,40
C[C@]12C[C@H](O)[C@H]3[C@@H](CCC4=CC(=O)CC[C@@]43C)[C@@H]1CC[C@@H]2C(=O)CO,0[10 µg/mL]
COc1cc(S(=O)(=O)N(Cc2cccs2)CC2CCCO2)ccc1-n1cnnn1 (configuration not stated),0
CCCNC(=O)c1ccccc1NC(=O)COc1ccc(OC)cc1,0
CCOC(=O)C(Oc1ccc2c(-c3ccc(OC)cc3)cc(=O)oc2c1C)c1ccccc1 (configuration not stated),0
CC[C@H]1OC(=O)[C@H](C)[C@@H](O[C@H]2C[C@@](C)(OC)[C@@H](O)[C@H](C)O2)[C@H](C)[C@@H](O[C@@H]2O[C@H](C)C[C@H](N(C)C)[C@H]2O)[C@](C)(O)C[C@@H](C)C(=O)[C@H](C)[C@@H](O)[C@]1(C)O,0[10 µg/mL]
Clc1ccc(CSC(Cn2ccnc2)c2ccc(Cl)cc2Cl)cc1 (configuration not stated),320[10 µg/mL]
C[C@@]12C(=O)OC(=O)[C@]1(C)[C@H]1CC[C@@H]2O1,40[10 µg/mL]

A second format for part of the listing above.
structure: O=C(CCCN1C(=O)c2ccccc2C1=O)Nc1c(C(=O)C2CC2)oc2ccccc12
  quorum sensing = ?
structure: Cc1nc(C)c(C(=O)C2=C(O)C(=O)N(CCN3CCOCC3)C2c2ccco2)s1 (configuration not stated)
  quorum sensing = 0

Filtered by structure, those above containing an NH in an aromatic ring (four)
SMILES,quorum sensing
Cc1ccc(-c2cc(NC(=O)CSc3n[nH]c(N)n3)n(-c3ccccc3)n2)cc1,0
Cc1cccc(-n2c(Cc3cc(=O)[nH]c(=O)[nH]3)nnc2SCC(=O)N2CCCCC2)c1,0
c1nc(N2CCN(Cc3ccc4c(c3)OCO4)CC2)c2[nH]cnc2n1,80
CCCSc1nnc(-c2c[nH]c3ccccc23)n1C,0

Other structures:
SMILES,quorum sensing
O=C(Oc1ccc2ccc(OC(=O)N3CCOCC3)cc2c1)N1CCOCC1,0
CCSc1nc2c(c(=O)[nH]1)C(C(C)C)C(C#N)=C(N)O2 (configuration not stated),0
NC(=O)CN1CCOCCOCCN(CC(N)=O)CCOCC1,0
Cc1cc(C(=O)N2CCOCC2)n(-c2ccccc2)n1,0
CC(C)Cn1c(=O)[nH]c2ccccc21,0
N=C1C(c2ccccc2)=C(O)CN1Cc1ccco1,?
O=C(CSc1nnc(Cc2cccs2)n1Cc1ccco1)Nc1ccc(Br)cc1,?
O=C(Nc1ccc(Cl)cc1)OCc1cc(-c2ccccc2)on1,40
O=C(O)CCC(=O)Nc1ccc(S(=O)(=O)Nc2nccs2)cc1,0[10 µg/mL]
Cc1oc(-c2ccc(Cl)cc2)nc1CS(=O)CC(=O)NCc1cccs1 (configuration not stated),0
CC(NC(=O)C(c1ccccc1)c1ccccc1)C(=O)O (configuration not stated),200
Cc1nc2n(c(=O)c1CCN1CCC(c3noc4cc(F)ccc34)CC1)CCCC2,0[10 µg/mL]
Cn1nc(-c2ccc(Cl)cc2)c2cc(C(=O)NCC3CCCO3)sc21 (configuration not stated),160
CCOC(=O)Cc1csc(-n2sc3ccccc3c2=O)n1,0
Cn1c(C(=O)N2CCN(C(=O)c3ccco3)CC2)cc2c(=O)n(C)c3ccccc3c21,0
Cc1ccc(-n2nnnc2SCC(=O)Nc2cccc(NC(=O)c3ccco3)c2)cc1C,0
CCCCOC(=O)c1ccc(O)cc1,0[10 µg/mL]
COc1ccc(C(c2sc3nc(C)nn3c2O)N2CCC(O)CC2)cc1OC (configuration not stated),40
CC1OC2(OC1C)C(=O)Nc1ccccc12 (configuration not stated),0
CC(C)C(=O)N1CCN(c2ccccc2N)CC1,0
COc1ccc(C2CC(=O)N3CN(c4ccc(C)c(Cl)c4)CSC3=C2C#N)cc1 (configuration not stated),0
CCOC(=O)c1sc(NS(=O)(=O)c2ccccc2)nc1C,?
NS(=O)(=O)c1cccn1-c1ncc(C(F)(F)F)cc1Cl,0
COc1ccc(N(CC(=O)Nc2ccc3c(c2)OCO3)S(=O)(=O)c2c(C)nn(C)c2C)cc1,0
COc1cccc(CNc2ncc(Br)cc2Br)c1O,40
CC1(O)CCOC(=O)C1 (configuration not stated),?
O=C(NCc1cccnc1)c1nnc(Cc2ccc(F)cc2)o1,200
Cc1ccc(Cl)c(Nc2ccccc2C(=O)O)c1Cl,0[10 µg/mL]
CCc1ccc(OCCNC(=O)c2cccs2)cc1,0
COc1ccc(NC(=O)C2CCCN(S(=O)(=O)c3cnc[nH]3)C2)cc1 (configuration not stated),0
COc1ccc(CC(=O)Nc2ccc(S(=O)(=O)NC(C)C)cc2)cc1,40
O=C(CCNc1n[nH]c(=O)[nH]c1=O)N1CCOCC1,0
CCCCC(=O)Nc1nc(C)c(C(C)=O)s1,40
COc1ccc(CCNC(=O)CN2CCN(Cc3ccc(F)cc3)C2=O)cc1OC,40
COCc1cc(C)nc2sc(C(=O)N3CCCCC3)c(N)c12,320
COc1ccc(C2C(Oc3ccccc3)C(=O)N2c2cc(C)ccc2C)cc1OC (configuration not stated),0
CCCSC1=C(C#N)C(c2ccc(O)c(OC)c2)CC(=O)N1 (configuration not stated),0
O=C(Nc1ccccc1-c1nc2ccccc2s1)c1ccc(Br)o1,0
CCn1c(SC(C)C)nnc1-c1c[nH]c2ccccc12,0
c1ccc2c(c1)CCCc1cc(NCCN3CCOCC3)nnc1-2,0[10 µg/mL]
O=C(CSc1ncnc2c1oc1ccccc12)Nc1ccccc1F,?
O=C1c2ccccc2C(=O)C1c1ccccc1,0[10 µg/mL]
CC(C)COc1ccc(C(=O)N(Cc2ccco2)C2CCS(=O)(=O)C2)cc1 (configuration not stated),0
Cc1cc(C)c2c(N)c(C(=O)NCC3CCCCC3)sc2n1,0
COc1ccc(C(=O)c2oc3ccc(OC)cc3c2N)cc1,0
Cc1ccc(C2CC(c3ccco3)n3nc(N)nc3N2)cc1 (configuration not stated),80
CC(C)(O)C#Cc1ccc(C(=O)N2CCN(C(=O)c3ccco3)CC2)cc1,0
CCOC(=O)C(CC)Sc1nc2c(cnn2-c2ccccc2)c(=O)[nH]1 (configuration not stated),40
CCOc1ccccc1-n1c(SCC(=O)N2CCOCC2)nnc1-c1ccccn1,40
COCCOC(=O)C1=C(C)NC(C)=C(C(=O)OC(C)C)C1c1cccc([N+](=O)[O-])c1 (configuration not stated),0[10 µg/mL]
O=C(CCN1C(=O)c2ccccc2C1=O)NC(=S)Nc1cccc(Cl)c1,0
COc1ccc(-c2cc(C(F)(F)F)n3nc(C(=O)Nc4cc(C)on4)cc3n2)cc1OC,0

Only part of the results is shown (hit frequency here may not be typical).
